# S aureus helic = inhibitors of S. aureus replicative helicase, primary screen, biochemical, fluorescence unwinding readout | purified S. aureus helicase, fluorescence unwinding assay; about half of the hits fall short of the stated cut | replicative DNA helicase (DnaC/DnaB), Staphylococcus aureus | AID 485395, 2010 | inhibition, %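 (tested at about 80 µM)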 | hit rate 0.05% among 120,000;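 active = both duplicates at 50% or more, or one of them with a favoured structure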;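 also: 0% = mean of negative control wells and 100% = mean of positive control wells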
# MgrA DNA FP = S. aureus MgrA activity modulators, primary screen, biochemical, S. aureus Newman, fluorescence polarization; MgrA-DNA binding; inhibition, %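 (about 10 µg/mL by stock and volumes)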; hit rate 0.13% among 84,000;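 active = above 50% in either of two replicates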;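 also: 0% = protein plus DNA without compound and 100% = DNA alone without protein; higher means less MgrA bound to DNA so lower polarization; one replicate is shown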
# * hit, by the source's call; . = no result given.
SMILES,S aureus helic,MgrA DNA FP
CC(N)C(=O)N1CCCCC1 (configuration not stated),3,1.0
CC(c1ccc(F)cc1)N1CN(Cc2ccccc2)c2nc3ccccc3n2C1 (configuration not stated),-2,.
Cc1ccc(C(=O)NC2CC(C)(C)NC(C)(C)C2)c(C)c1,8,-2.0
O=C(CSC1N=C2C=CC=CC2O1)c1ccccc1 (configuration not stated),5,-1.0
O=C(Cc1ccc(S(=O)(=O)N2CCOCC2)s1)OCc1nc2ccccc2s1,-12,.
c1ccc2c(c1)ncn2CCN1CCCCC1,-26,.
Cc1sc(NC(=O)c2ccccc2F)c(C(=O)O)c1C,4,-1.9
O=C(CSc1nc2sc3c(c2c(=O)[nH]1)CCCC3)Nc1nc2c(s1)CCCC2,6,0.0
Cc1ccc2ncc(C(=O)NC(C)(C)C)c(=O)n2c1,1,.
CCCN(CC(=O)Nc1ccccc1C)C(=S)NC,-24,.
CCOc1cc(C2Nc3ccc4ncccc4c3C3=C2C(=O)CCC3)ccc1O (configuration not stated),-8,.
CC(=O)N(CCc1ccc(C)[n+]([O-])c1)c1ccccc1,10,-1.6
CCOc1ccccc1-c1nnc(CS(=O)(=O)c2ccccc2)o1,-33,.
C=CCN1C(=O)c2ccc(C(=O)OCc3cn4ccccc4n3)cc2C1=O,6,.
CCCOc1ccc(Cl)cc1C(=O)O,7,0.9
O=C(NCc1cccs1)c1ccc2c(c1)N(Cc1ccccc1)C(=O)CS2,5,-0.7
Cc1nnc(SCC(=O)NC(=O)C2COc3ccccc3O2)n1Cc1ccccc1 (configuration not stated),4,.
O=C(NCC1CCCO1)c1cccc(Nc2nc3ccccc3n3cnnc23)c1 (configuration not stated),-7,.
N#Cc1sc2sc(C#N)c(-c3cccs3)c2c1N,.,0.4
Cc1cc(C(=O)Nc2sc(C)c(C)c2C(=O)NCc2cccnc2)no1,13,-5.7
O=C1CCCCCN1C(=O)c1ccc(Cl)cc1,5,.
CC1CCCCN1C(=O)C1CCN(S(=O)(=O)c2ccc(-n3cnnn3)cc2)CC1 (configuration not stated),-1,1.9
O=C(CN(C(=O)c1cc2c(s1)CCC2)C1CCCC1)NCc1cccs1,16,0.6
CCn1c(=O)c2cc(C(=O)NCCCN3CCCCCC3)sc2c2ccccc21,16,3.8
COC(=O)c1ccc(COc2cccc3c2CCN(Cc2ccccc2)C3=O)o1,11,.
CC(C)Cn1c(N)c(C(=O)NCc2cccs2)c2nc3ccccc3nc21,8,.
COC(=O)C(C1CCS(=O)(=O)C1)S(=O)(=O)c1ccccc1 (configuration not stated),-3,.
Cc1cccc(C)c1OCC(=O)N(CC(N)=O)C(C)C,18,.
O=C(Cc1ccc(Br)cc1)Nc1ccc(-c2nnc(-c3ccccc3)o2)cc1,5,1.6
O=S(=O)(Cc1cccc(C(F)(F)F)c1)NCc1csc(-c2cccs2)n1,4,.
O=C(NCc1ccc(F)cc1)c1cc2c(s1)CN(C1CCCCCC1)C2,7,.
CC(C)N(C(=O)COn1nnc2ccccc21)c1ccccc1,-4,.
COc1ccccc1CNC(=O)c1ccc2c(c1)N(Cc1ccc(F)cc1Cl)C(=O)CS2,6,0.3
CN(C)/N=C/c1ccc([N+](=O)[O-])o1,.,4.5
CN(c1ccc(Cl)cc1)c1nc(O)c(C2=c3cc(F)ccc3=NC2=O)s1,10,3.0
COc1ccc(NC2c3ccccc3C(=O)N2c2ccc(Cl)cc2)cc1 (configuration not stated),10,-1.4
Cc1ccnc(SC(C)C(=O)O)n1 (configuration not stated),-17,-0.2
Cc1cc2cc(CNC(=O)C3CC3)ccc2n1C,14,.
Cc1ccc(NC(=O)c2ccc(-c3ccccc3)cc2)nc1,1,-0.7
CCOC(=O)c1c(NC(=O)c2ccc(Cl)c([N+](=O)[O-])c2)sc(C(=O)Nc2ccccc2C)c1C,.,-0.8
CCCCN1C(=O)C(O)(CC(=O)c2ccc3c(c2)OCCO3)c2ccccc21 (configuration not stated),-3,0.4
CCOc1ccc(CN(C)CC(O)COCC2CCCO2)cc1 (configuration not stated),-8,.
COc1ccc(-c2nc(SCC(=O)N3CCCC3)n[nH]2)cc1,1,-2.9
OC(CN1CCC(c2nc3ccccc3o2)CC1)c1ccccc1 (configuration not stated),-9,.
N#CCCNC12CC3CC(CC(C3)C1)C2,11,.
Cc1cc(=O)oc2cc(OCC(O)CN3CCc4ccccc4C3)ccc12 (configuration not stated),10,.
NC(=S)N/N=C1/C2C3CC4C1C1C2CC3C41 (configuration not stated),9,.
CN1CCc2c(sc3c2C(=O)NC(c2cccc(O)c2)N3)C1 (configuration not stated),27,.
Cc1cc(=O)[nH]c(SCC(=O)NCCCc2ccccc2)n1,-5,.
CCOC(=O)c1ccc2nc(C(F)(F)F)cc(N3CCN(Cc4ccccc4)CC3)c2c1,.,-2.7
O=c1[nH]c(=S)c2c(n1N1CCOCC1)CCC2,21,-3.0
CN(C)C(CNC(=O)c1ccc(-c2ccccc2)cc1)c1ccco1 (configuration not stated),8,.
Cc1cc(S(=O)(=O)NCc2csc(-c3cccs3)n2)c(C)s1,.,0.3
O=C(c1ccc(-n2cnnn2)cc1)N1CCN(C(c2ccccc2)c2ccccc2)CC1,-6,.
N#CCc1nc(-c2ccccc2)cs1,.,0.7
O=C(c1ccc(CS(=O)(=O)c2ccc(Br)cc2)o1)N1CCN(c2ccc(Cl)cc2)CC1,15,.
Cc1ccc(OCc2nc(C#N)c(NCCN(C)C)o2)cc1,7,-1.9
COc1ccc(C(=O)C2CC2)cc1,.,1.6
c1ccc(-c2csc3c4ncnc-4ncn23)cc1,3,.
COc1ccc(NC(=O)C2CCC(Cn3c(=S)[nH]c4ccsc4c3=O)CC2)cc1 (configuration not stated),7,-1.1

# Quoted from the listing.
# `CCOC(=O)c1ccc2nc(C(F)(F)F)cc(N3CCN(Cc4ccccc4)CC3)c2c1` in MgrA DNA FP has -2.7
# `Cc1cc(=O)oc2cc(OCC(O)CN3CCc4ccccc4C3)ccc12` (configuration not stated) in S aureus helic has 10
# `CN1CCc2c(sc3c2C(=O)NC(c2cccc(O)c2)N3)C1` (configuration not stated) in S aureus helic has 27
# `COc1ccc(C(=O)C2CC2)cc1` in MgrA DNA FP has 1.6

# Carrying on.
SMILES,S aureus helic,MgrA DNA FP
Cc1noc(C)c1CSc1ncccc1C(=O)NCCc1c[nH]c2ccccc12,-8,.
Cc1cc(C(=O)COC(=O)c2ccccc2S(C)=O)c(C)n1CCC1=CCCCC1 (configuration not stated),-1,.
O=C(O)c1cc2ccccc2n1-c1ccccc1,9,-1.1
Cc1cc2c(cc1S(=O)(=O)NCCC1=CCCCC1)n(C)c(=O)c(=O)n2C,18,.
COC(=O)c1cc(NC(=O)NCc2noc3ccccc23)cc(C(=O)OC)c1,-3,.
CN1c2ccccc2Oc2nnc(N3CCN(C(=O)c4ccco4)CC3)cc21,-8,.
COC(=O)C1=C(C)OC(N)=C(C#N)C1c1ccc(C(C)C)cc1 (configuration not stated),.,5.9
Cc1ccc(NC(=O)c2ccc(S(=O)(=O)N3CC(C)CC(C)C3)cc2)c(C(=O)c2ccccc2)c1 (configuration not stated),9,1.7
CC1SC(C)C(=O)N(CC(=O)Nc2ccccc2F)C1=O (configuration not stated),3,.
COCCN1C(=O)c2ccccc2C(C(=O)N2CCCC2)C1c1cn(C)c2ccccc12 (configuration not stated),1,.
COc1cc(CCC(=O)NC2CCCCC2)cc(OC)c1OC,5,1.4
Cc1c(N=NC2=C(O)CC(C)(C)CC2=O)cc2c(c1[N+](=O)[O-])C(C)(C)CC2(C)C,.,-1.8
CCc1ccc(-c2nc(SCC(=O)N3CCCC3=O)n[nH]2)cc1,-13,.
CCOc1ccc2[nH]c(=O)c(CN(CCc3ccccc3)C(=O)N(C)C)cc2c1,6,-6.1
CC(C)Cn1c(=S)[nH]c2ccccc2c1=O,0,-1.9
CC(C)(C)c1cc(C(=O)O)n[nH]1,13,-1.9
COC(=O)c1c[nH]n2c(=O)c(C(C)C)c(C)nc12,6,-1.3
O=C(OCN1C(=O)c2ccccc2C1=O)C1CCN(S(=O)(=O)c2ccc(Cl)cc2)CC1,-11,.
CCN(Cc1ccccc1)C(=O)COC,-2,-2.1
COc1ccc(N2CCN(c3ccc(OC)cc3)C2c2cc(OC)ccc2O)cc1,5,-0.5
N#CCCCn1c(-c2ccc(Cl)cc2)noc1=O,19,-2.9
CCOC(=O)c1cnn(-c2ncnc3sc4c(c23)CCCC4)c1N,5,0.0
Fc1ccc(N2CCN(C3=Nc4cccc5cccc3c45)CC2)cc1,-61,.
C=CCSc1n[nH]c(=O)n1-c1ccc(Cl)cc1,.,-2.4
c1ccc(Nc2nc3ccccc3o2)cc1,1,-3.1
COC(=O)c1noc(C)c1-c1ccnn1S(=O)(=O)c1cccc(C(F)(F)F)c1,1,.
COc1ccc(C2=NN(CC(=O)N3CCCC3)C(=O)CC2)cc1,10,0.4
Cc1ccc(S(=O)(=O)Nc2c(C#N)c3nc4ccccc4nc3n2Cc2ccccc2)cc1,-2,.
COc1ccc(-c2cc(C(=O)NCC(C)C)no2)cc1OC,11,0.4
CC1CCN(S(=O)(=O)c2cnc[nH]2)CC1,9,-0.4

# Reformatted tab-delimited: two of the compounds above.
structure	S aureus helic	MgrA DNA FP
C=CCSc1n[nH]c(=O)n1-c1ccc(Cl)cc1	.	-2.4
COc1ccc(C2=NN(CC(=O)N3CCCC3)C(=O)CC2)cc1	10	0.4

# Further results.
SMILES,S aureus helic,MgrA DNA FP
C=CCNC(=O)CSc1nncn1-c1ccccc1,-15,.
CC(OC(=O)CSc1nc2ccccc2o1)C(=O)c1ccc(OC(F)F)cc1 (configuration not stated),-1,.
CCOC(=O)c1csc(NC(=O)CN2CCOCC2)n1,0,.
O=C(O)c1ccccc1NS(=O)(=O)/C=C/c1ccccc1,-10,.
CCC(C)c1ccccc1NC(=O)COc1ccc2c(c1)OCO2 (configuration not stated),-4,.
O=C1c2oc3ccccc3c(=O)c2C(c2cccc(O)c2)N1Cc1ccccc1 (configuration not stated),-1,.
COc1ccc(N2C(=O)CSCC2=O)cc1OC,-8,.
COc1ccc(CCCc2n[nH]c(=S)n2C)cc1C,7,3.9
CCOc1ccc(-c2cccc(NS(C)(=O)=O)c2)nn1,4,.
O=C(Nc1cc(C(F)(F)F)cc(C(F)(F)F)c1)C(Sc1ccccn1)c1ccccc1 (configuration not stated),.,0.5
CC(=O)NC(=O)c1cc2cc(Br)ccc2oc1=Nc1ccc(C)cc1,.,-0.8
Cc1cc(NS(=O)(=O)c2ccc(NS(=O)(=O)c3ccc(C#N)cc3)cc2)no1,.,4.3
COc1ccc(S(=O)(=O)c2c(C(=O)c3ccccc3)cnc3cc(OC)c(OC)cc23)cc1,-5,1.1
Cc1ccc(-c2nc(N3CCN(c4ccc(F)cc4)CC3)c3ccccc3n2)cc1,-26,.
Nc1nc(=S)nc(Cc2ccc3c(c2)CCC3)[nH]1,-27,.
COc1ccccc1CCNC(=O)c1ccoc1C,4,-2.3
N#Cc1c(-c2ccccc2)nc2n1CCS2,.,1.4
O=C(CCNS(=O)(=O)c1ccc(Br)cc1)NC1CCCC1,8,4.1
O=C1CC(CCC(=O)NC2CC2)c2ccccc2N1 (configuration not stated),3,.
Cc1ccc(NC(=O)c2ccc3nc[nH]c3c2)cc1C,13,.
CSc1ccc(C(=O)O)s1,7,0.9
CCOC(=O)/C(C#N)=C/Nc1ccc(Oc2cccnc2)nc1,.,-2.6
CC1(C)NC(=O)N(CCC(=O)N2CCN(S(=O)(=O)c3cccs3)CC2)C1=O,5,.
CCOC(=O)C1=C(C)NC(C)=C(C(=O)OC)C1c1cccc(Cl)c1Cl (configuration not stated),.,-0.4
O=C1Cc2ccccc2N1c1ccccc1,.,-4.3
COc1ccc(S(=O)Cc2ccc(C(=O)NCCc3ccc(SC)cc3)o2)cc1 (configuration not stated),8,.
C[N+]1(CCOC(=O)C2(c3ccccc3)CCCC2)CCCCC1,4,0.9
COC(=O)c1ccc(-c2ccco2)n1CC(=O)Nc1cccc(C)c1C,-24,.
CCn1nc(C)c(Br)c1-c1nc(-c2cccs2)no1,.,4.2
Cc1cc(NS(=O)(=O)c2ccc(NS(=O)(=O)c3ccc(Cl)cc3)cc2)no1,.,0.8

# Ordered by the number under S aureus helic (highest first): 3 of the compounds above
SMILES,S aureus helic,MgrA DNA FP
COc1ccc(S(=O)Cc2ccc(C(=O)NCCc3ccc(SC)cc3)o2)cc1 (configuration not stated),8,.
C[N+]1(CCOC(=O)C2(c3ccccc3)CCCC2)CCCCC1,4,0.9
COC(=O)c1ccc(-c2ccco2)n1CC(=O)Nc1cccc(C)c1C,-24,.

# Part of the list above, with two lines to a compound.
# Each structure is followed by: S aureus helic	MgrA DNA FP
COc1ccc(S(=O)Cc2ccc(C(=O)NCCc3ccc(SC)cc3)o2)cc1 (configuration not stated)
    8	.
C[N+]1(CCOC(=O)C2(c3ccccc3)CCCC2)CCCCC1
    4	0.9
COC(=O)c1ccc(-c2ccco2)n1CC(=O)Nc1cccc(C)c1C
    -24	.
CCn1nc(C)c(Br)c1-c1nc(-c2cccs2)no1
    .	4.2

# (continued)
SMILES,S aureus helic,MgrA DNA FP
CN=c1scc(C)n1/N=C(\C)c1cccc(F)c1,-2,.
COc1ccc(OCc2nc(N)nc(SC)n2)cc1,.,-2.0
CC(C)NC(=O)c1cc(Br)c(Br)s1,5,.
O=C(O)CCCSc1ccc(Cl)cc1,-5,-7.8

# Source: PubChem BioAssay

# These rows are one share of the data; rates above refer to the full screens.
